# Screening results from PubChem BioAssay.
# FGF22 binding = binders of recombinant human FGF22 by thermal shift; SYPRO orange fluorescence; percent of sucrose octasulfate shift, DMSO zero; calls only at 9.99 µM; actives 1.5% (n = 340,000);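 active means melting point raised past a set limit in the mean and every replicate; inconclusive means no clear call; three in four hits are not shown here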
# Target sequence (Q9HCT0 whole entry, looked up): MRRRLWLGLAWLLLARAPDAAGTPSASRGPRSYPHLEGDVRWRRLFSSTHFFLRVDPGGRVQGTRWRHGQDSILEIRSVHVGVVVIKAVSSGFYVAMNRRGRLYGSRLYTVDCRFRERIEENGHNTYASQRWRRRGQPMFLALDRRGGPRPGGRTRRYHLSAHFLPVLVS
# UCH37 DUB inh = human UCH37 deubiquitinating enzyme inhibition. purified proteasome/UCH37, Ub-AMC cleavage fluorescence. inhibition, % (concentration not given with the values). actives 0.33% (n = 330,000). AID 588478;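 active means mean of two replicates above 20%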;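 further: 0% = compound-free wells with enzyme and 100% = wells lacking proteasome; stock transfer was 100 nL into about 20 µL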
# Target sequence (Q9Y5K5 whole entry, looked up): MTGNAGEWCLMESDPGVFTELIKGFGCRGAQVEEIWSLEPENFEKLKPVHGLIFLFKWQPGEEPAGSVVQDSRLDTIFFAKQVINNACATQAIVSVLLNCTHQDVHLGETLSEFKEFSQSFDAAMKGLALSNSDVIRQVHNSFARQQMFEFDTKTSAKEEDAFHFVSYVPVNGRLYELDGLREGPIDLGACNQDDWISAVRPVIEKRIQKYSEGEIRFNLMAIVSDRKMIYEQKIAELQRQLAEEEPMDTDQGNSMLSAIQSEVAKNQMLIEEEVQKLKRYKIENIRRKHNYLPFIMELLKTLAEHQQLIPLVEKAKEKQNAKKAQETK
#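 Test system – human UCH37 enzyme supplied as purified proteasome complex · Incubation – 30 min preincubation with enzyme, 25 min cleavage at room temperature · Detection – AMC fluorescence from Ub-AMC cleavage, excitation 355 nm, emission 460 nm · Benchmarks – no-proteasome wells (full inhibition) and compound-free wells (no inhibition)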
# RanGTP-Impb inh = inhibitors of RanGTP-importin-beta interaction, primary screen, biochemical, FRET, CFP-Ran, YFP-importin-beta, homogeneous | cell-free CFP-Ran/YFP-importin-beta FRET ratio | actives 1.1% (n = 300,000) | inhibition, % (concentration not given with the values) | AID 2216;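 active means most replicates above 15%; inconclusive means exactly half above 15%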;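 further: 0% = DMSO wells and 100% = Ran loaded with GDP instead of GTP; wells of about 40 µL received 100 nL stock; the first replicate is given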
# Vif TR-FRET = inhibitors of Vif binding to APOBEC3G peptide, primary screen, biochemical, TR-FRET, GST-Vif 1-94, biotin-A3G peptide, dose response retest (AID 1117319) | TR-FRET GST-Vif / biotin-A3G peptide binding; higher % means a stronger effect; test concentration not given here; strong numbers were not always called active | inhibition, %, or IC50 in µM where a hit was titrated | actives 0.57% (n = 260,000);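 active means above the screen mean plus three standard deviations and confirmed in dose response; inconclusive means results disagree or hit not tested in dose response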;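 further: Vif residues 1-94 fused to GST binding biotinylated APOBEC3G peptide 110-148; 0% = full assay without inhibitor and 100% = GST in place of GST-Vif; retest series ran down from 100 µM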
# MLL AF4-AF9 inh = MLL-AF4/AF9 protein interaction inhibition; inhibition, % at 10 µM; actives 0.47% (n = 350,000); AID 651704; AlphaScreen, biotin-AF4 peptide binding to FLAG-AF9;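 active means every replicate reaching a set inhibition limit, whatever the replicate mean, cut at about 25% in these data; inconclusive means mean inhibition reaches that limit but some replicates miss it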;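 further: 0% = plate neutral control median and 100% = total signal loss; the record names both 10 and 1 µM as test concentration; the first replicate is given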
# E coli growth = E. coli growth inhibition; Escherichia coli growth, OD600, 23 h; active compounds read low; OD600 absorbance (no concentration beside the values); actives 0.21% (n = 330,000); AID 1053175;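 active means OD600 absorbance below the run mean of sample wells minus 3.6 SD, in any replicate, cut at about 0.56 in these data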;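 further: stock transfer was 300 nL into about 60 µL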
# HNF4A DNA FP = change in binding of human HNF4 alpha to DNA; P41235; HNF4a-FITC DNA binding, fluorescence polarization, 1 h; activity change, % at 10 µM; actives 0.3% (n = 360,000); in the data active means activity change above about 30%, passing the limit was not always enough;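 further: controls were the assay level and a saturating level of protein; the project sought stronger binding though the title names inhibitors; some compounds called inactive have numbers as strong as hits; positive values seem to mean higher polarization but the record does not say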
# Target sequence (P41235 whole entry, looked up): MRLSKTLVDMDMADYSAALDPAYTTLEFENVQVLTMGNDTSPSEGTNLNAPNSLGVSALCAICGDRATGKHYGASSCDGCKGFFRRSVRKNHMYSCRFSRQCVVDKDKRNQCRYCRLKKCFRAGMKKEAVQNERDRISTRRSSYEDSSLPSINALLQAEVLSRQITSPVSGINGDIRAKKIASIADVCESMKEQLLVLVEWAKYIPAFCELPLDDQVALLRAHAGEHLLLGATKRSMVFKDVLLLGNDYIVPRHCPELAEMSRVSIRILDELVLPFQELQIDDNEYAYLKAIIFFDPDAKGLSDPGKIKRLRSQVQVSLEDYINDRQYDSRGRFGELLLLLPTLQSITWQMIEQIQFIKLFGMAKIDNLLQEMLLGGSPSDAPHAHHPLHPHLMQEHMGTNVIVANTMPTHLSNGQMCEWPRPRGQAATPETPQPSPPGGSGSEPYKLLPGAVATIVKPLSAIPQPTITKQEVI
# The depositor's hits bear a star; i = inactive; ? = inconclusive; nt = not tested or not shown.
SMILES	RanGTP-Impb inh	Vif TR-FRET	FGF22 binding	E coli growth	HNF4A DNA FP	MLL AF4-AF9 inh	UCH37 DUB inh
CCOc1ccc(CC(=O)N/N=C/c2cccnc2)cc1OCC	0.3	nt	i	nt	0.4	2.5	nt
CC12CC3(C)CC(C)(C1)CC(C(=O)Nc1nn[nH]n1)(C2)C3	6.7	-0.8%	nt	0.712	2.4	nt	-0.1
CC(C)NC(=O)c1onc(CSc2ccc(C(C)C)cc2)c1C(=O)O	-1.7	2.1%	i	0.629	4.1	-2.2	4.5
COC(=O)c1ccc2nc(NC(=O)COC(=O)CSc3nc(C)cc(C)n3)sc2c1	?	?	nt	0.701	4.0	nt	2.3
Cc1ccc(-c2cnc3ccccc3n2)cc1C	-2.5	-5.6%	i	0.663	0.9	5.9	-105.7
CN(C)c1ccc(CN(C(=O)/C=C/c2ccco2)C2CCS(=O)(=O)C2)cc1 (stereo unspecified)	12.0	19.3%	i	0.688	-3.8	3.7	6.0
Cc1nnsc1Sc1cccc(C(F)(F)F)c1	?	25.6%	nt	0.683	2.1	nt	3.0
O=C1[C@H]2CCCC[C@H]2C(=O)N1CCCCN1CCN(c2nsc3ccccc23)CC1	-1.7	nt	i	nt	-0.7	3.8	4.1
CCOC(=O)C1CCN(C(=O)c2cccnc2Oc2ccc(Cl)cc2)CC1	-1.3	-6.4%	i	0.633	1.7	-5.5	4.8
CCCCCC(=O)N/N=C(\C)c1ccccn1	-0.9	?	nt	nt	-5.2	nt	nt
CCOC(=O)CNC(=O)C1CCN(S(=O)(=O)c2ccc(-c3nn[nH]n3)cc2)CC1	4.5	nt	i	0.708	-1.4	4.3	7.7
O=[N+]([O-])c1ccc(COc2ccccc2CN2CCCC2)cc1	nt	-4.6%	i	nt	1.0	2.0	nt
COC(=O)[C@H](CCSC)NC(=O)Nc1ccc(C(C)=O)cc1	2.7	11.7%	nt	0.633	3.9	nt	0.7
CCC1CCCCN1CCCNC(=O)Cn1nc(C)n2nc(-c3ccccc3)cc2c1=O (stereo unspecified)	-0.5	-8.6%	i	0.688	-4.4	-6.5	2.2
N#C/C(=C\C=C\c1ccccc1)C(=O)NCc1ccco1	-2.6	?	i	0.678	-2.9	4.2	6.2
S=C(NCc1ccco1)N1CCN(c2ccccn2)CC1	2.5	5.7%	i	0.599	-0.8	1.3	-2.3
Cc1ccc2cc(COC(=O)C3CCCO3)c(=O)[nH]c2c1 (stereo unspecified)	0.7	-0.4%	nt	0.688	-6.5	nt	-6.7
CCOC(=O)c1cnc2c(c(C)nn2CC)c1Cl	0.2	-6.6%	nt	0.644	4.9	-1.2	-1.8
Cc1cc(C(=O)NNC(=S)Nc2cccc(C(F)(F)F)c2)nn1C	0.6	5.0%	i	0.689	5.3	-1.2	3.6
CCCC(=O)Nc1ccc2c(c1)nc(CCNC(=O)c1ccccc1)n2C	-2.4	1.4%	i	0.725	-4.0	3.1	5.9
S=C(NC1CCCCC1)N1CCN(Cc2ccccc2)CC1	-0.2	2.7%	i	0.693	-1.1	6.2	3.7
COc1ccc(OC)c(NC(=O)C2CCCN2S(=O)(=O)c2ccc3c(c2)CC(C)N3C(C)=O)c1 (stereo unspecified)	nt	1.8%	i	nt	-2.8	5.1	nt
O=C(Nc1nnc(-c2ccc(F)cc2)o1)c1cc(Cl)sc1Cl	4.2	-2.3%	nt	0.545	-0.4	nt	0.3
O=C(N1CCOCC1)N1CCN(c2nc(-c3ccccc3)cs2)CC1	3.4	-2.6%	nt	0.679	3.6	nt	-0.2
Cc1onc(-c2ccccc2)c1C(=O)N/N=C/C=C/c1ccccc1	-0.9	-4.4%	i	nt	-0.8	-1.6	nt
O=C(COC(=O)c1ccc(OC(F)F)cc1)NC(=O)NC1CCCC1	nt	nt	i	0.695	-4.7	-0.2	1.0
CCOc1ccc(C(C(=O)NCC2CCCO2)N(C(=O)c2snc(C(N)=O)c2N)c2ccccc2F)cc1 (stereo unspecified)	2.5	2.8%	i	nt	0.6	4.3	nt
Cc1cc(=O)oc(C)c1C(=O)NCc1ccc(F)cc1	2.5	-0.9%	nt	0.657	-0.3	nt	18.5
COc1ccc(C2c3ccc(O)cc3Oc3ncn4nc(-c5ccco5)nc4c32)cc1OC (stereo unspecified)	11.5	1.6%	i	0.705	6.6	-2.2	-1.1
O=C(Nc1cc(Cl)ccc1Cl)c1ccc(OC(=O)c2ccco2)cc1	-5.8	-0.4%	nt	0.661	4.3	nt	1.5
c1cncc(-c2noc(C34CC5CC(CC(C5)C3)C4)n2)c1	5.0	10.8%	nt	0.705	3.7	nt	0.3
O=C(NC1CCCC1)C(c1ccc(F)cc1)N(C(=O)c1csnn1)c1ccccc1F (stereo unspecified)	-1.4	-4.3%	i	0.664	0.8	0.7	-0.5
COc1cc(C(=O)OCC(=O)NC(=O)NC2CCCCC2)cc(Cl)c1OC	1.2	7.1%	i	0.671	-0.5	-0.2	3.5
COc1ccc(C)cc1N(CC(=O)O)S(=O)(=O)c1ccc(C)cc1	-3.0	?	nt	0.713	-0.2	nt	-0.4
Cn1cc([N+](=O)[O-])c(C(=O)Nc2ccc(C3CCCCC3)cc2)n1	-3.1	0.3%	i	0.631	-1.0	8.7	0.9
CCN(c1ccc(NC(=O)CSCc2c(C)noc2C)cc1)C(C)C	nt	6.7%	i	0.667	1.0	7.1	3.6
Clc1ccc2nc(C3CCCCC3)c(CC3CCCCC3)n2c1	nt	nt	i	nt	2.1	-8.7	nt
Cc1cc(NC(=O)CCC(=O)N(c2ccccc2)C(C(=O)NC2CCCC2)c2ccccc2F)no1 (stereo unspecified)	0.9	2.0%	i	0.702	-0.8	2.0	0.3
O=C(Nc1ccccc1)c1ccc(S(=O)(=O)N2CCCC2)cc1	2.6	3.8%	nt	0.656	0.8	nt	0.4
O=C(NCCc1ccccn1)c1cccc(S(=O)(=O)N2CCCCCC2)c1	1.8	28.3%	nt	0.715	-6.0	nt	-2.2
CCOC(=O)C1CCN(S(=O)(=O)c2cnc[nH]2)CC1	1.8	18.6%	nt	0.716	-3.5	nt	0.6
COc1ccc2c(=O)c3c(=O)n(Cc4ccco4)c(-c4ccc(C)cc4)nc3oc2c1	5.8	-32.5%	nt	0.706	-5.1	nt	5.6
Cc1ccnc(NC(=O)C2(c3cccs3)CCOCC2)c1	0.4	nt	i	0.671	-1.5	-20.7	0.3
CCOC(=O)Cc1csc(NC(=O)/C=C/c2ccc(Cl)cc2)n1	-0.8	6.8%	i	0.659	-0.6	-2.4	-14.8
Cc1nc2cc(NC(=O)c3ccc(S(=O)(=O)N(C)c4ccccc4)cc3)ccc2o1	-1.6	nt	i	0.683	4.3	-5.9	-0.9
CCCCn1c(CN(C)Cc2ccccc2)nc2c1c(=O)n(C)c(=O)n2C	0.6	-2.5%	nt	0.698	2.4	nt	1.0
Clc1ccc(COn2c(-c3ccc(Cl)cc3)nc3ccccc32)cc1	6.4	1.9%	nt	0.729	8.1	nt	1.7
O=C1c2ccc(Oc3ccc4c(c3)C(=O)N(CCCO)C4=O)cc2C(=O)N1CCCO	0.5	-6.8%	nt	0.805	5.4	nt	1.9
CCCOc1ccc(/C=C/C(=O)Nc2ccc([N+](=O)[O-])cc2C)cc1	0.9	-4.8%	nt	0.681	-0.5	nt	8.5
COc1cccc(-c2cnc(C(O)c3c(C)ccc4ccccc34)[nH]2)c1 (stereo unspecified)	nt	nt	i	nt	0.4	2.2	nt
CCOc1ccc(-n2c(Cc3cc(=O)[nH]c(=O)[nH]3)nnc2SCC(N)=O)cc1	-2.3	>100µM*	nt	0.632	-1.8	nt	-1.4
O=C(Cc1ccccc1)Nc1ccc(NC(=O)c2ccc(Br)cc2)cc1	-1.8	nt	i	0.666	-2.2	-2.8	-9.1
Cc1cc(NC(=O)CSc2nnc(NC(=O)C3CC(=O)N(c4ccccc4C)C3)s2)no1 (stereo unspecified)	-2.2	11.8%	i	0.707	3.1	0.8	2.4
Cc1ccc(Nc2nc3nonc3[nH]c2=O)cc1Cl	-1.5	-3.2%	nt	0.635	-4.6	0.8	4.4
Cc1ccccc1NC(=O)CSc1nnc(C)c2ccccc12	0.8	nt	i	0.66	-0.9	-1.8	6.6
CC(=O)NS(=O)(=O)c1ccc(N=NN2CCCCCC2)cc1	-2.1	nt	i	0.701	-0.4	0.6	11.7

# The list continues.
SMILES	RanGTP-Impb inh	Vif TR-FRET	FGF22 binding	E coli growth	HNF4A DNA FP	MLL AF4-AF9 inh	UCH37 DUB inh
COc1ccccc1NC(=O)C1CCCN(S(=O)(=O)c2ccc(-n3cnnn3)cc2)C1 (stereo unspecified)	2.5	nt	i	0.608	1.5	1.9	0.8
CC1=C(c2ccc(C)cc2)[N+](=O)C(C)(C)N1[O-]	?	nt	i	0.698	-1.1	-0.4	0.9
CCCNS(=O)(=O)/C=C/c1ccccc1	4.2	-5.5%	i	0.666	3.0	-1.1	-1.5
CC(NC(=O)c1cccs1)c1ccc(Cl)cc1 (stereo unspecified)	0.6	nt	i	0.656	2.5	-1.7	2.0
O=C(Cn1nnc(-c2ccccc2Cl)n1)Nc1cccc(S(=O)(=O)N2CCCC2)c1	nt	-4.6%	nt	0.732	-0.2	-52.1	3.7
COc1cc2c(c(NC(C)=O)c1)N(C(C)=O)CCC2	nt	-3.3%	i	0.702	1.5	-0.3	3.2
Cc1cc(=O)[nH]c(=S)n1-c1ccccc1	1.7	1.9%	nt	0.688	0.4	nt	4.6
CCOC(=O)C1CCN(c2ccc(C(N)=O)cc2[N+](=O)[O-])CC1	0.2	20.9%	i	0.673	-2.2	0.8	5.2
O=Cc1cccn1-c1sc2c(c1C(=O)O)CCCC2	-1.0	-0.4%	i	0.712	-5.1	4.7	2.9
CCCCCc1ccc(CC(=O)O)cc1	2.0	7.2%	nt	0.649	-0.3	nt	0.2
Cc1cc(C)cc(OCC(=O)OCC(=O)c2cc(C)n(C3CC3)c2C)c1	6.4	10.5%	i	0.667	-1.5	-2.3	1.3
CCOC(=O)c1cnc2ccc(OC)cc2c1Nc1ccc(N2CCN(C)CC2)cc1	7.0	nt	i	nt	-2.6	41.1*	nt
O=C(NNC(=O)c1cccc2ccccc12)c1ccc2c(c1)OCO2	-0.7	nt	i	0.642	-1.2	-3.6	-0.1
COc1ccc(Cc2c(C3CCCCC3)nc3ccc(Cl)cn23)c(C)c1	nt	nt	i	nt	6.8	-0.2	nt
O=C(Nc1cccc(Cl)c1)c1ccccc1NC(=O)C1CCCCC1C(=O)O (stereo unspecified)	6.4	nt	i	0.651	-0.3	0.4	3.5
CN(CC(=O)Nc1ccccc1C(=O)NC1CC1)Cc1ccc(N(C)C)cc1	nt	1.7%	i	0.672	-2.6	5.4	1.6
COC(=O)c1c(N)sc(C(=O)N2CCOCC2)c1C	-2.5	-3.7%	nt	0.674	0.3	nt	0.9
COc1ccc(Cn2cc(CN(C)C3CN(Cc4cn(Cc5ccc(OC)cc5)nn4)S(=O)(=O)C3)nn2)cc1 (stereo unspecified)	nt	nt	i	nt	8.6	-1.7	nt
CC(C)(Oc1ccc(Cl)cc1)C(=O)Nc1c2c(nn1C(C)(C)C)CS(=O)(=O)C2	0.9	nt	i	nt	-1.7	-23.2	nt
Cc1cc(Oc2ccc(N)cn2)cc(C)c1Cl	2.6	-9.5%	i	0.677	2.9	nt	4.9

# Some of the compounds tested; rates above refer to the full screens.
